E coli growth: inhibitors of Escherichia coli growth | OD600, 23 h; active compounds read low | OD600 absorbance (concentration not given with the values) | hit rate 0.21% among 330,000 | AID 1053175;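 active = OD600 absorbance below the run mean of sample wells minus 3.6 SD, in any replicate, cut at about 0.56 in these data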;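 also: stock transfer was 300 nL into about 60 µL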
Numbers without * were called inactive; & = joins results of further samples. An excerpt; count on the stated rates, not on these rows.

The opening eleven compounds, ahead of the listing:
| Compound | E coli growth |
| --- | --- |
| CC(=O)Nc1ccc(C2=CC(=O)CC(c3ccc(Cl)cc3)C2)cc1 (centres undefined) | 0.68 |
| CCOc1c2ccc(C(=O)NC(C)C3CCCCC3)cc2nn1CC (centres undefined) | 0.72 |
| CCN1C(=S)NC(c2cccc(F)c2)C(C(=O)OC)=C1C (centres undefined) | 0.69 |
| CCSc1ccc(C2C3C(=O)N(CC)C(=O)C3[C@]3(C(=O)OC)CCCN23)cc1 (some centres undefined) | 0.7 |
| CN1CC2C3C(=O)N(Cc4ccccc4)C(=O)C3[C@](C)(C1=O)N2C(=O)c1ccc(C(C)(C)C)cc1 (some centres undefined) | 0.68 |
| CC(C)(C)OC(=O)C(NC(=O)OCc1ccccc1)c1ccccc1 (centres undefined) | 0.61 |
| c1ccc(CC2CN=C(Nc3ccccc3)N2CC2CCCCC2)cc1 (centres undefined) | 0.68 |
| CC(C)CC(CN(N=O)C(Cc1ccccc1)CN(C)N=O)N(CCc1ccccc1)N=O (centres undefined) | 0.7 |
| COc1ccc(C2CC=C(C(=O)O)C(c3cccc(Cl)c3)N2S(=O)(=O)c2ccc(Cl)cc2)cc1 (centres undefined) | 0.67 |
| CCN1C(=NCCOC)NC(c2cccc(C(F)(F)F)c2)C(C(=O)OC)=C1C (centres undefined) | 0.7 |
| COCc1ccccc1C1=CC(=O)CC(c2ccc(OC)cc2)C1 (centres undefined) | 0.66 |

Main list, from the start:
| Compound | E coli growth |
| --- | --- |
| CC(=O)Nc1ccc(C2=CC(=O)CC(c3ccc(Cl)cc3)C2)cc1 (centres undefined) | 0.68 |
| CCOc1c2ccc(C(=O)NC(C)C3CCCCC3)cc2nn1CC (centres undefined) | 0.72 |
| CCN1C(=S)NC(c2cccc(F)c2)C(C(=O)OC)=C1C (centres undefined) | 0.69 |
| CCSc1ccc(C2C3C(=O)N(CC)C(=O)C3[C@]3(C(=O)OC)CCCN23)cc1 (some centres undefined) | 0.7 |
| CN1CC2C3C(=O)N(Cc4ccccc4)C(=O)C3[C@](C)(C1=O)N2C(=O)c1ccc(C(C)(C)C)cc1 (some centres undefined) | 0.68 |
| CC(C)(C)OC(=O)C(NC(=O)OCc1ccccc1)c1ccccc1 (centres undefined) | 0.61 |
| c1ccc(CC2CN=C(Nc3ccccc3)N2CC2CCCCC2)cc1 (centres undefined) | 0.68 |
| CC(C)CC(CN(N=O)C(Cc1ccccc1)CN(C)N=O)N(CCc1ccccc1)N=O (centres undefined) | 0.7 |
| COc1ccc(C2CC=C(C(=O)O)C(c3cccc(Cl)c3)N2S(=O)(=O)c2ccc(Cl)cc2)cc1 (centres undefined) | 0.67 |
| CCN1C(=NCCOC)NC(c2cccc(C(F)(F)F)c2)C(C(=O)OC)=C1C (centres undefined) | 0.7 |
| COCc1ccccc1C1=CC(=O)CC(c2ccc(OC)cc2)C1 (centres undefined) | 0.66 |
| CC(C)=CCC[C@](C)(O)C1CC[C@]2(C)C1C(O)CC1[C@@]3(C)CCC(O)C(C)(C)C3C(OC3OC(CO)C(O)C(O)C3OC3OC(C)C(O)C(O)C3O)C[C@]12C (some centres undefined) | 0.71 |
| CC(=O)OCC(=O)[C@@]1(O)CCC2C3CCC4=CC(=O)C=C[C@]4(C)C3C(O)C[C@@]21C (some centres undefined) | 0.7 |
| CCC(C)C1CN=C(N)N1CCc1cccc(F)c1 (centres undefined) | 0.67 |
| CCCCN1CC(=O)N2C3c4cc(OC)ccc4OCC3C(C(=O)OCC)[C@]2(C)C1=O (some centres undefined) | 0.65 |
| CC=C(C)C(=O)OC1C(OC(C)=O)c2c(ccc3ccc(=O)oc23)OC1(C)C (centres undefined) | 0.72 |
| O=C(Nc1ccccc1)C1=CC(c2ccc(Br)cc2)CC(OCCCCO)O1 (centres undefined) | 0.69 |
| CC(O)C(C(=O)N1CCNCC1)n1cc(C(N)CCCCN)nn1 (centres undefined) | 0.7 |
| COc1ccc(C2C=CCN(C(=O)C3CC3)CC(=O)N2Cc2ccc(F)cc2)cc1 (centres undefined) | 0.68 |
| NC(=O)C1=CC(C2CCCCC2)CC(OCCCCO)O1 (centres undefined) | 0.63 |
| CCOc1ccc(C=C2SC(=S)N(C(C(=O)O)c3ccccc3)C2=O)cc1OCC (centres undefined) | 0.67 |
| C[C@@]12C(=O)Nc3ccc(Br)cc3C(=O)N1C1c3cc(Br)ccc3OCC1C2c1ccccc1 (some centres undefined) | 0.71 |
| CCOC(=O)C1C2COc3ccc(Cl)cc3C2N2C(=O)C(C)NC(=O)[C@@]12C (some centres undefined) | 0.7 |
| CC1CN(C(C)CO)C(=O)c2cc(NC(=O)Cc3cn(C)c4ccccc34)ccc2OC1CN(C)S(=O)(=O)c1ccc(F)cc1 (centres undefined) | 0.67 |
| NC(=O)C1CCCCNc2c(F)cc([N+](=O)[O-])cc2C(=O)NC(CCCN=C(N)N)C(=O)NCC(=O)N1 (centres undefined) | 0.72 |
| O=C(OCc1ccccc1)N1CCCC1C=CCN1CCOCC1 (centres undefined) | 0.71 |
| COC(=O)CC1c2cc(C(F)(F)F)ccc2S(=O)(=O)N1C1CCCC1 (centres undefined) | 0.69 |
| CC1(C)OC2C(CO)OC(n3ccc(=O)[nH]c3=O)C2O1 (centres undefined) | 0.63 |
| CC#CC(CC)c1ccc2ccn(C)c2c1 (centres undefined) | 0.68 |
| CN1CCN(C(=O)C2=CC(c3ccccc3)CC(OCc3ccc(CO)cc3)O2)CC1 (centres undefined) | 0.69&0.7 |
| CCN1C(=O)C2C(c3ccc(C)cc3)N3C(=O)N(c4ccccc4)C(=O)[C@@]3(Cc3ccc(Cl)cc3)C2C1=O (some centres undefined) | 0.7 |
| COCCN1C(=O)NC(c2ccccc2)C(C(C)=O)C1C (centres undefined) | 0.63 |
| CCCC(CN1CCCC1CN1C(N)=NCC1Cc1ccccc1)N1CC(Cc2ccccc2)N(CCc2ccc(Cl)c(Cl)c2)C1=N (centres undefined) | 0.061* |
| CCCCN1C(Nc2ccccc2)=NCC1C (centres undefined) | 0.71 |
| Cc1ccc(CN2C(=O)C3Cc4c([nH]c5ccccc45)C(C)(C)N3C2=O)cc1 (centres undefined) | 0.69&0.71 |
| C=CCC(CC(=O)NC(CO)Cc1ccccc1)C(=O)NC(COC(=O)C(CC=C)CC(=O)OC(C)(C)C)Cc1ccccc1 (centres undefined) | 0.75&0.67&0.67 |
| O=C(CC1CC=CCCC(=O)OC(c2ccccc2)CNC1=O)NCCO (centres undefined) | 0.69 |
| CCN1C(=NCCCOC(C)C)NC(CCc2ccccc2)C(C(=O)NCCCOC(C)C)C1C (centres undefined) | 0.69 |
| O=C(O)CC1c2cc(C(F)(F)F)ccc2S(=O)(=O)N1C1CCCCC1 (centres undefined) | 0.68 |
| CN(CC(CC1CCCCC1)N(CC(Cc1ccccc1)N(CCc1ccccc1)N=O)N=O)N=O (centres undefined) | 0.7&0.72 |
| CCOC(=O)c1ccc(NC(=O)c2nc[nH]c2C(=O)NC(CC(C)C)C(=O)OCc2ccccc2)cc1 (centres undefined) | 0.7 |
| CN1CCc2cc(Cl)c(O)cc2C(c2ccccc2)C1 (centres undefined) | 0.71 |
| CC(=O)Nc1ccc(SCC(Cc2ccccc2)N2CCC(C(C)(C)C)CCC2=O)cc1 (centres undefined) | 0.68 |
| CC(O)C1CNC(=O)C(=O)N1CCC12CC3CC(CC(C3)C1)C2 (centres undefined) | 0.71 |
| Cc1ccc(S(=O)(=O)N2C(c3ccc(Cl)cc3)CC=C(C(=O)O)C2c2ccccc2F)cc1 (centres undefined) | 0.67 |
| COc1ccc(C2C=CCN(C(=O)C(Cc3ccccc3)NC(=O)OCC3c4ccccc4-c4ccccc43)CC(=O)N2Cc2ccc(F)cc2)cc1 (centres undefined) | 0.66 |
| NC(=O)C1=CC(c2ccccc2)CC(OCCCCO)O1 (centres undefined) | 0.65 |
| COc1cccc(C=C(C(=O)OCC(=O)NCC2CCCO2)c2ccccc2)c1 (centres undefined) | 0.73 |
| CC1CCc2nc(C(C#N)=Cc3ccncc3)sc2C1 (centres undefined) | 0.69 |
| C[C@@]12CCCC(O1)C(C(O)c1ccccc1)O2 (some centres undefined) | 0.69 |
| O=C(C=Cc1ccc(Cl)cc1)N(Cc1ccccc1)c1ccccn1 | 0.7 |
| O=C1NCC(Cc2ccc(O)cc2)N(CCc2cccc3ccccc23)C1=O (centres undefined) | 0.68&0.68 |
| COc1ccc(C(=O)C=Cc2ccc(O)cc2)c(O)c1CC=C(C)C | 0.71 |
| CCOC1OC(C(=O)N2CCN(Cc3ccc4c(c3)OCO4)CC2)=CC(C)C1CCCO (centres undefined) | 0.69&0.68 |
| O=C1CCN(Cc2ccc(Br)cc2)CCN1C(CO)Cc1ccccc1 (centres undefined) | 0.71 |
| CCCCN1CCC2C=CCC(C(=O)NCCc3ccccc3)C2C1=O (centres undefined) | 0.64 |

Continuation.
| Compound | E coli growth |
| --- | --- |
| CC(C)(C)C1C=C(C(=O)N2CCOCC2)OC(OCc2ccc(CO)cc2)C1 (centres undefined) | 0.67&0.71 |
| COc1cccc(C2Oc3ccc(OC)cc3C(=O)C2OC(=O)Nc2cc(OC)c(OC)c(OC)c2)c1 (centres undefined) | 0.7 |
| C#CCOCCOCCOCCNc1nc(N2CCN(C(=O)C(CCC(=O)O)n3cc(C(N)CC(C)C)nn3)CC2)nc(N2CCN(C(=O)C(Cc3ccc(O)cc3)n3cc(C(N)C(C)CC)nn3)CC2)n1 (centres undefined) | 0.63 |
| NCCCCC1NC(=O)C(CCC(=O)O)NC(=O)c2cc([N+](=O)[O-])cc(I)c2SCC(C(=O)NCC(N)=O)NC1=O (centres undefined) | 0.63 |
| CSc1ccc(C2=CC(=O)CC(c3ccc(Cl)cc3)C2)cc1 (centres undefined) | 0.73 |
| CC(C)CCN1C(Nc2ccccc2)=NCC1Cc1ccccc1 (centres undefined) | 0.65 |
| C=CCCC(Cc1ccc(F)cc1)C(=O)OC(CNC(=O)C(CC=C)CC(=O)NC(CO)Cc1ccccc1)c1ccccc1 (centres undefined) | 0.67 |
| [N-]=[N+]=NCC(c1ccccc1)N1CCN(Cc2ccccc2)CCC1=O (centres undefined) | 0.69 |
| NC(=NOC(=O)c1cc(-c2ccccc2)nc2ccccc12)c1ccccn1 | 0.69 |
| COc1ccc(C2CC(=O)C=C(c3ccc(Cl)c(C(F)(F)F)c3)C2)cc1OC (centres undefined) | 0.72 |
| O=S(=O)(c1ccccc1)[C@@]1(c2ccccc2)CC2ON=C(c3cccc(-c4ccccc4)c3)C2C1 (some centres undefined) | 0.75 |
| CC(CO)NC(=O)c1ccc2c3n(nc2c1)-c1ccc(Cl)cc1CO3 (centres undefined) | 0.68 |
| COc1ccc(CN2CC(C)C(CC(=O)NCc3ccccc3)C2=O)cc1 (centres undefined) | 0.67 |
| CC(C)(C)OC(=O)C(Cc1ccccc1)NC(=O)c1nc[nH]c1C(=O)NC1CCNCC1 (centres undefined) | 0.69 |
| CC1NC(=O)c2cc([N+](=O)[O-])cc(I)c2OCCC(C(=O)NC(CC(=O)O)C(N)=O)NC(=O)C(CC(N)=O)NC1=O (centres undefined) | 0.69 |
| CN1CC2C(c3ccc(Cl)nc3)C3(c4cccnc4)CC2(C3)C1c1ccccc1 (centres undefined) | 0.64 |
| CCOC1OC(C(=O)N2CCN(Cc3ccc4c(c3)OCO4)CC2)=CC(c2ccc3c(c2)OCO3)C1CCCO (centres undefined) | 0.66&0.7 |
| Cc1ccc(S(=O)(=O)N(C)CC2Oc3ccc(NC(=O)Nc4c(C)noc4C)cc3CC(=O)N(C(C)CO)CC2C)cc1 (centres undefined) | 0.6 |
| COCC=CC1=CC2=CC(=O)C(C)(OC(=O)c3cnc4ccccc4n3)C(=O)C2=CN1CCCOC(C)C (centres undefined) | 0.68 |
| CCCCNC(=O)OC1CC2CCCC(=O)N3CCC(C1)C23 (centres undefined) | 0.67 |
| CCC(C)CCN1C(Nc2ccccc2)=NCC1Cc1ccccc1 (centres undefined) | 0.66 |
| O=C(NC(CO)Cc1ccccc1)c1ccco1 (centres undefined) | 0.65 |
| CC[C@@]12C(=O)N(c3ccc(C)cc3)C(=O)N1C(c1ccc(OC)cc1)C1C(=O)N(C(C)(C)C)C(=O)C12 (some centres undefined) | 0.66 |
| CCN1C(=O)C2C(c3ccc(-c4ccc5c(c4)OCO5)c(OC)c3)N3CCCC[C@@]3(C(=O)OC)C2C1=O (some centres undefined) | 0.62 |
| CCC1=C(OC(=O)N(CC)CC)N2C(=O)OC(=NCC3CC3)[C@]2(Cc2ccccc2)C2C1=CCC1C(=O)N(CC(=O)OC)C(=O)C12 (some centres undefined) | 0.69 |
| COc1cc(Cl)c(C)cc1NC(=O)COC(=O)C=Cc1c(C)nn(C2CCS(=O)(=O)C2)c1Cl (centres undefined) | 0.71 |
| CC(C)CC1CN=C(Nc2ccccc2)N1CCCC1CCCCC1 (centres undefined) | 0.67 |
| CC(C)CC(NC(=O)c1nc[nH]c1C(=O)NCC(=O)OCc1ccccc1)C(=O)OC(C)(C)C (centres undefined) | 0.71 |
| O=C1C=C(C=Cc2ccccc2)CC(c2ccc(F)cc2)C1 (centres undefined) | 0.68 |
| c1ccc(C2C3CN(Cc4cccnc4)C(c4ccccc4)C34CC2(c2cccnc2)C4)cc1 (centres undefined) | 0.7 |
| Cc1ccc(SCC(Cc2ccccc2)N2CCN(C)CCC2=O)cc1 (centres undefined) | 0.67 |
| C=CCOc1ccc(C(O)=C2C(=O)C(=O)N(CCCOC)C2c2ccc(O)c(OC)c2)cc1 (centres undefined) | 0.7 |
| O=[N+]([O-])c1cc(C=NNC(=Nc2ccccn2)c2ccccn2)ccc1O | 0.63 |
| Cc1ccc(SCC(CC(C)C)N2CCN(C)CCC2=O)cc1 (centres undefined) | 0.68 |
| C#CCOCCOCCOCCNc1nc(N2CCN(C(=O)C(CCCCN)n3cc(CN)nn3)CC2)nc(N2CCN(C(=O)C(CCCCN)n3cc(CN)nn3)CC2)n1 (centres undefined) | 0.69 |
| O=C1NC(Cc2ccccc2)C(=O)N2C1C[C@@]1(Br)c3ccccc3N(S(=O)(=O)c3ccccc3)C21 (some centres undefined) | 0.71&0.7 |
| COc1ccc(C2C=CCN(C(=O)C3CCCC3)CC(=O)N2Cc2ccc(F)cc2)cc1 (centres undefined) | 0.69 |
| CN(C)S(=O)(=O)n1cnc(C2c3c(ncn3Cc3ccccc3)CC3COC(=O)C32)c1 (centres undefined) | 0.66 |
| FC(F)(F)c1ccc(CN2CC3C(c4ccccc4)C4(c5ccccc5)CC3(C4)C2c2ccccc2)cc1 (centres undefined) | 0.71 |
| O=C(NC(Cc1ccccc1)C(=O)OCc1ccccc1)c1nc[nH]c1C(=O)NC(c1ccccc1)c1ccccc1 (centres undefined) | 0.73 |
